Mtb growth: Mycobacterium tuberculosis H37Rv growth inhibition, cell based, confirmatory dose response (AID 1949); one-dose inhibition, % at 10 µg/mL; IC50 in µg/mL for titrated hits; hit rate 1.6% among 100,000; most inactive calls were filed without a number and no value below 0 was filed;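 active means confirmed in a dose series; inconclusive means about 50% or more but not retested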;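 further: bacteria grown 7 days with compound before Alamar blue readout; 0% = untreated bacteria and 100% = reference antibiotic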
* = called active by the depositor; i = inactive; u = inconclusive.

SMILES	Mtb growth
COC(=O)C1=C(C)Nc2ncnn2C1c1c(F)cccc1Cl (stereo not drawn)	i
Nc1nnc(-c2ccc(Oc3nc(N4CCOCC4)nc(N4CCOCC4)n3)cc2)s1	i
COc1ccc([N+](=O)[O-])cc1-c1[nH]c(-c2cccs2)nc1-c1ccccc1	i
CCN(CC)CCCNc1ncnc2sc3c(c12)CCC(C)C3 (stereo not drawn)	i
CCCCOc1ccc(C(=O)Nc2ccc(N3CCCC3)cc2)cc1	i
O=C(Nc1nnc(-c2ccccc2)s1)c1ccccc1	i
CS(=O)(=O)N(CC(=O)NCc1ccncc1)c1cccc(C(F)(F)F)c1	i
Clc1ccc(OCCOCCNCc2ccccc2)cc1Cl	7%
COc1ccc(-c2cc(=O)oc3cc(O)c(Cl)cc23)cc1	i
CC(c1ccccc1)n1cnc2cc(N)ccc21 (stereo not drawn)	i
CC(NC(=O)C(=S)NC1CCCCC1)c1ccccc1 (stereo not drawn)	4%
CC(=O)C1=C(c2ccccc2)NC(=O)NC1c1ccc(O)c(O)c1 (stereo not drawn)	3%
CCC(Oc1ccccc1)C(=O)NCC#N (stereo not drawn)	i
O=C(CCSc1nnc(-c2ccccc2)o1)Nc1ccc(F)cc1	5.2µg/mL*
CCn1c(Cc2ccccc2)nnc1SCC(=O)Nc1ccc2c(c1)n(C)c(=O)n2C	i
O=C(NC(=S)N1CCOCC1)C12CC3CC(C1)CC(c1ccccc1)(C3)C2	i
CCc1ccc(OCC(=O)Nc2ccc(OC)c(Cl)c2)c(Br)c1	i
CCc1ccccc1N1C(=O)CC(SCC(=O)Nc2ccc(F)cc2)C1=O (stereo not drawn)	i
Cc1cc(C)cc(C(=O)Nc2ccc(F)c(Cl)c2)c1	i
O=C(NCc1ccco1)c1cc(Br)ccc1Cl	i
O=C(Cc1coc2ccc3ccccc3c12)NC1CCCCC1	i
Cc1ccc(C(=O)NC(=S)Nc2ccc(Cl)cc2Cl)cc1I	i
COc1ccc(C(C)NC(=O)c2cc(-c3ccccc3)nc3ccccc23)cc1OC (stereo not drawn)	i
COc1ccc(C2NC(=S)NC(C)=C2C(=O)Nc2cc(C)ccc2C)c(OC)c1 (stereo not drawn)	i
N#Cc1cn(CC(=O)NCCOc2ccc(Cl)cc2)c2ccccc12	i
Cc1ccc(NC(=O)N2CCN(c3ccccn3)CC2)cc1	i
COC(=O)c1ccsc1NC(=O)Cc1ccccc1	i
COc1ccc(N(CC(=O)N2CCN(c3ccccc3F)CC2)S(C)(=O)=O)cc1Cl	i
Cc1ccc(CSCC(=O)Nc2ccccc2)cc1	2.9µg/mL*
Cc1cc(C)nc(SCCOc2ccc(Cl)c(C)c2)n1	i
Cc1ccc(NC(=O)Cc2ccc([N+](=O)[O-])cc2)c(Br)c1	i
CS(=O)(=O)N1CCN(C(=S)NCC2CCCO2)CC1 (stereo not drawn)	i
Cc1nn2c(-c3ccncc3)nnc2c2ccccc12	25%
COc1cc(NC(=O)c2ccccc2)c(OC)cc1NC(=O)CCCOc1ccc(C)cc1	i
Cc1c(NC(=O)CCCc2ccccc2)cccc1NC(=O)CCCc1ccccc1	i
COc1cccc(NC(=O)c2ccccc2C(=O)Nc2cccc(OC)c2)c1	i
COc1cc(NC(=O)CCN2C(=O)c3ccccc3C2=O)cc(OC)c1	i
CC(C)c1ccccc1OCC(=O)Nc1ccc(Oc2ccccc2)cc1	6%
O=C1c2oc3ccc(Br)cc3c(=O)c2C(c2cccc(Cl)c2)N1Cc1ccc(F)cc1 (stereo not drawn)	i
COC(=O)c1ccc(CSc2nc(C)cc(C)n2)cc1	i
COc1cc(OC)cc(C(=O)N2CCC(C(=O)NCc3ccccc3)CC2)c1	i
CCNS(=O)(=O)c1ccc(OC)c2ccccc12	i
CCOc1ccc(NC(=O)C2CCN(S(=O)(=O)c3ccc(OC)c(OC)c3)CC2)cc1	i
COc1ccc(CC(=O)NCC2COc3ccccc3O2)cc1 (stereo not drawn)	4%
Cc1ccsc1-c1nnc(NC(=O)c2cccs2)s1	i
Cc1cc(C)c(OCC(=O)O)c(Br)c1	i
CC1CN(CCCOc2ccccc2[N+](=O)[O-])CC(C)O1 (stereo not drawn)	i
COc1cccc(C(=O)Oc2ccc3oc(C)c(C(=O)OC(C)C)c3c2)c1	i
Cc1ccc(NC(=O)COc2ccc(Cl)cc2C=O)cc1	i
O=[N+]([O-])c1ccccc1S(=O)(=O)N1CCN(C2Cc3ccccc3C2)CC1	i

4 structures out of the list, ordered by molar mass, smallest number first:
SMILES	Mtb growth
CC1CN(CCCOc2ccccc2[N+](=O)[O-])CC(C)O1 (stereo not drawn)	i
COc1ccc(CC(=O)NCC2COc3ccccc3O2)cc1 (stereo not drawn)	4%
COc1cc(OC)cc(C(=O)N2CCC(C(=O)NCc3ccccc3)CC2)c1	i
CCOc1ccc(NC(=O)C2CCN(S(=O)(=O)c3ccc(OC)c(OC)c3)CC2)cc1	i

(more compounds)
SMILES	Mtb growth
CSc1cccc(NC(=O)C2CCN(S(=O)(=O)c3ccc(Br)cc3)CC2)c1	15%
C=CCOc1c(CNc2ccc(C(=O)O)cc2)cccc1OCC	i
COc1ccc(CCNC(=O)CN(C)S(=O)(=O)c2cc(C)ccc2OC)cc1	i
Cc1cc(-c2cc(C(N)=O)c3cc(Cl)ccc3n2)c(C)s1	8%
Cc1cc(C)c(S(=O)(=O)Nc2ccc(S(=O)(=O)N3CCC(C)CC3)cc2)c(C)c1	i
CSc1ccccc1NC(=O)CSc1nccn1C	2%
CC1=C(C(=O)Nc2ccccc2)C(c2ccccc2C)NC(=S)N1 (stereo not drawn)	4%
Cn1cnnc1-c1cccc([N+](=O)[O-])c1	i
CC1=C(C(=O)Nc2cc(Cl)ccc2C)C(c2cccc([N+](=O)[O-])c2)NC(=O)N1 (stereo not drawn)	i
COc1ccccc1-n1c(-c2cnccn2)n[nH]c1=S	0%
CSc1cccc(NC(=O)CN(C)S(=O)(=O)c2ccc(F)cc2)c1	i
COc1ccc(-c2nnc(SCC(=O)Nc3ccccc3C(C)C)o2)cc1	i
Cc1ccc(C(=O)NC(=S)Nc2ccc([N+](=O)[O-])cc2)cc1I	2%
O=S(=O)(Nc1ccc(S(=O)(=O)Nc2ccc(Cl)cc2Cl)cc1)c1ccccc1	i
CCOC(=O)c1cn(-c2ccccc2)nc1-c1cccnc1	i
Cc1c(Br)c(C(F)(F)F)nn1CC(=O)N1CCCC1	i
CC1(C)Cc2c(c(N3CCOCC3)nc3sc4c(ncn5c(SCc6ccccc6)nnc45)c23)CO1	i
CC(=O)C1(O)C(C)CC2C3CCC4CC(O)CCC4(C)C3=CCC21C (stereo not drawn)	i
Cc1cc(C)c2c(c1)NC(=O)C2(O)c1c[nH]c2ccccc12 (stereo not drawn)	i
Cc1ccc(SCCNC(=O)c2ccc3ccccc3n2)cc1	i

Reprinted at random: 6 entries already listed.
SMILES	Mtb growth
COc1cc(NC(=O)CCN2C(=O)c3ccccc3C2=O)cc(OC)c1	i
COc1cccc(NC(=O)c2ccccc2C(=O)Nc2cccc(OC)c2)c1	i
CC(c1ccccc1)n1cnc2cc(N)ccc21 (stereo not drawn)	i
COc1cc(OC)cc(C(=O)N2CCC(C(=O)NCc3ccccc3)CC2)c1	i
Clc1ccc(OCCOCCNCc2ccccc2)cc1Cl	7%
COc1ccc(CCNC(=O)CN(C)S(=O)(=O)c2cc(C)ccc2OC)cc1	i

(list continues)
SMILES	Mtb growth
CC(=O)Nc1ccc(Nc2nnc(-c3ccc(C)c(S(N)(=O)=O)c3)c3ccccc23)cc1	i
Cc1ccc(C(C)C)cc1OCCOCCOc1cccc2cccnc12	12%
COc1ccc(N2C(=O)CC(N3CCCCC3C)C2=O)cc1 (stereo not drawn)	i
CN(CCO)c1nc(-c2ccccc2F)nc2ccccc12	i
COc1ccc(C)cc1NC(=O)CNS(=O)(=O)c1ccccc1	i
CCNc1nc(NC(C)(C)C)nc(Oc2ccc(C=O)cc2)n1	0%
CCOC(=O)c1c(NS(=O)(=O)c2cccc(OC)c2)sc2c1CCC2	1%
COC(=O)COc1ccc(S(=O)(=O)Nc2ccc(Oc3ccccc3)cc2)cc1	14%
COc1ccc(NC(=S)NC(=O)c2ccco2)cc1Cl	i
CCc1cccc(C)c1NC(=O)c1c(Cl)ccc(Cl)c1OC	u

Of the compounds above, two contain a cyano group:
SMILES	Mtb growth
CCC(Oc1ccccc1)C(=O)NCC#N (stereo not drawn)	i
N#Cc1cn(CC(=O)NCCOc2ccc(Cl)cc2)c2ccccc12	i

New compounds follow
SMILES	Mtb growth
O=C(COc1ccc2ccccc2c1)NC1CC1	1%
CCOc1ccc(-n2c(-c3cccc(C)c3)n[nH]c2=S)cc1	i
COc1ccc(CC(=O)NCCCOC(C)C)cc1	2%
Cc1ccc(NC(=O)c2c(-c3ccccc3)noc2C)c(Br)c1	i
O=C(CSc1nnc(NC(=O)c2ccccc2Br)s1)Nc1ccc(F)cc1	i
COc1ccc(CC(=O)Nc2cc(C)on2)cc1	i
CCCSc1nc(C)cc(C)c1C(N)=O	0%
Cc1cccc(CN2CCN(CC3CC=CCC3)CC2)c1 (stereo not drawn)	i
Cc1cc(OCc2cccc(C(F)(F)F)c2)c2c3c(c(=O)oc2c1)CCC3	i
C=CCNC(=O)c1c(NC(=O)c2cccc(C)c2)sc2c1CCCC2	3%
CCCn1nnc(NC(=S)NC(=O)c2cccs2)n1	i
N#Cc1cc(-c2ccccc2)oc1NC(=O)c1ccco1	i
CCc1ccc2c(c1)CCCN2C(=O)c1ccc(C(=O)N2CCCc3cc(CC)ccc32)s1	6%
COC(=O)c1cc(OC)c(OC)cc1NC(=S)Nc1sc2c(c1C(=O)OC)CCC2	i
CC(C)Cc1nnc(NC(=O)CSc2ccccn2)s1	i
CC(C)Oc1ccc(C(=O)NCc2ccccc2Cl)cc1	4%
CCn1c(SCc2ccccc2Cl)nnc1C(C)NC(=O)c1ccc(Cl)c(Cl)c1 (stereo not drawn)	1%
O=C(NCc1ccccc1)C(=S)N1CCCCC1	i
CCOC(=O)c1c(NC(=O)CSc2ncc(-c3ccccc3)nn2)sc2c1CCC2	i
CC(C)c1ccc(OCCOCCN(C)C)cc1	i

A different layout for some results above:
canonical_smiles: CCn1c(SCc2ccccc2Cl)nnc1C(C)NC(=O)c1ccc(Cl)c(Cl)c1 (stereo not drawn)
  Mtb growth = 1%

canonical_smiles: O=C(NCc1ccccc1)C(=S)N1CCCCC1
  Mtb growth = i

canonical_smiles: CCOC(=O)c1c(NC(=O)CSc2ncc(-c3ccccc3)nn2)sc2c1CCC2
  Mtb growth = i

canonical_smiles: CC(C)c1ccc(OCCOCCN(C)C)cc1
  Mtb growth = i

(list continues)
SMILES	Mtb growth
CC(=O)Oc1ccc2c(=O)c(-c3nc4ccccc4s3)coc2c1C	i
S=C(Nc1ccccc1Cl)Nc1ccc(Cl)cc1Cl	i
CC(Oc1ccccc1)C(=O)Nc1ccc(OC(F)(F)F)cc1 (stereo not drawn)	i
COc1cccc(N2CC(C(=O)O)CC2=O)c1 (stereo not drawn)	i
COc1cc(-n2nnnc2SCc2ccccc2F)c(OC)cc1Cl	i
CN(Cc1ccccc1)C(=O)CCN1C(=O)c2ccccc2C1=O	i
CCN(CC)C(=O)COc1ccc(-c2nnc(NC3CCCCC3)c3ccccc23)cc1	4%
Cc1ccc(S(=O)(=O)NC(C)(C)C(=O)Oc2cc(C)c3c(c2)oc(=O)c2ccccc23)cc1	2%
COc1cccc(C=O)c1OCC(=O)NCc1ccccc1	i
Cc1ccc(C)c(NC(=O)C(=O)NCc2ccncc2)c1	i
CCN1C(=O)C(O)(CC(=O)c2cccs2)c2ccccc21 (stereo not drawn)	i
CCOC(=O)c1ccc(NC(=O)C2CCN(S(=O)(=O)c3ccc(OC)cc3)CC2)cc1	i
CN1CCN(C(=O)C2CC(c3c(F)cccc3Cl)=NO2)CC1 (stereo not drawn)	i
COC(=O)c1ccc2c(=O)n(Cc3ccco3)c(SCC(=O)Nc3ccc(C)cc3)nc2c1	i
Cc1c(NC(=O)Nc2ccc(F)cc2F)cccc1[N+](=O)[O-]	i
Cc1cc(C)nc(SCC(=O)Nc2ccccc2C(F)(F)F)n1	i
COc1ccc(S(=O)(=O)Nc2c(C)[nH]c(=O)[nH]c2=O)cc1OC	i
CCOc1ccc(-n2cnnn2)cc1S(=O)(=O)N1CCCCC1	i
COC(=O)c1ccc(NC(=O)CSc2nc3ccc(N)cc3s2)cc1	9%
C=C(C)c1cccc(C(C)(C)NC(=O)N2CC=C(c3ccccc3)CC2)c1	i
O=C(Nc1ccc(Oc2cccc3cccnc23)cc1)c1cccc([N+](=O)[O-])c1	i
CCN(CC)C(=O)c1sc(NC(=S)Nc2cc([N+](=O)[O-])ccc2OC)c(C(=O)OC)c1C	i
CCOC(=O)CCc1c(C)c2cc(Cl)c(OCc3cc([N+](=O)[O-])ccc3OC)cc2oc1=O	i
O=C(NCc1ccncc1)c1ccc(Cl)c(Cl)c1	i
Cc1ccc(-c2nc3ncccc3o2)cc1NC(=O)COc1ccc([N+](=O)[O-])cc1	i
C=CCNCCOCCOc1ccc(C)cc1[N+](=O)[O-]	i
CCOc1ccc(OCC(=O)Nc2cc(C)cc(C)c2)cc1	1.5µg/mL*
COc1ccc2nc(NC(=O)c3ccccc3OC)sc2c1	i
COC(=O)C1=C(C)N(C2CCCCC2)C(=O)C1	i
O=C(Nc1ccccc1Br)c1cn(-c2ccccc2)nc1-c1ccc(F)cc1	9%
CCN(C(=O)COc1cc(C)ccc1C)c1ccccc1	4%
COc1cccc(C(=O)N2CCN(CC3CC=CCC3)CC2)c1 (stereo not drawn)	i
CC1CCC(n2c(=S)[nH]c3ccccc3c2=O)CC1 (stereo not drawn)	10%
O=C1CC(NCC2CCCO2)C(=O)N1c1ccc(Cl)cc1 (stereo not drawn)	i
COc1ccc(Cl)cc1NC(=O)COc1cccc2ccccc12	i
COC(=O)c1noc(-c2ccc(OC)cc2)n1	i
COC(=O)c1cc(C)sc1NC(=S)Nc1cc(C)cc(C)n1	4%
CC1CCN(CC(=O)n2c3c(c4ccccc42)CCCC3)CC1	i
CCCNC(=O)c1ccccc1NS(=O)(=O)c1ccc(OC)c(Br)c1	i
COc1cc(C(=O)NCCOc2ccc(F)cc2)c(Br)c(OC)c1OC	i

These rows are one share of the data; the hit share may differ from the screen's.
